# Screens as filed in PubChem.
# Sa RN4220 lethal = S. aureus RN4220 growth inhibition; OD600, 16 h; actives 0.33% (n = 330,000); inhibition, % (no concentration beside the values);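 active = z-score of -3 or lower and OD600 up to 0.18 on both plates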;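 also: plate controls were untreated cells for no effect and reference antibiotic for full effect; stock transfer was 100 nL into about 80 µL; one replicate is shown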
# Mtb hypoxia inh = Mtb hypoxia fluorescent reporter inhibition. actives 0.1% (n = 300,000). AID 1159583. M. tuberculosis hypoxia-regulated fluorescent reporter, fluorescence. fluorescence inhibition, % (concentration not given with the values);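 active = 35 to 45% if threefold the growth effect, above 45% if 1.5-fold the growth effect; inactive = the rest, general growth blockers included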;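 also: wells of about 50 µL received 100 nL stock; 0% = vehicle wells and 100% = reference inhibitor wells; whole bacteria with a GFP reporter of the hypoxia response; strong numbers were not always called active; many hits fall short of the cut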
# ugtP null kill = compounds lethal to S. aureus RN4220 ugtP deletion mutant; AID 1259309; OD600 growth, 16 h; some inactives read as strong as hits; actives 0.54% (n = 330,000); growth inhibition, % (concentration not given with the values);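 active = z-score under -3 and OD600 up to 0.15 on both plates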;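 also: plate controls were untreated wells for no effect and antibiotic for full effect; wells of about 80 µL received 100 nL stock; the first replicate is given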
# PrP UTR inh = inhibition of PrP 5' UTR reporter expression. actives 0.35% (n = 340,000). inhibition, % (test concentration not listed). AID 488862. cell-based PrP 5' UTR mRNA reporter, plate reader;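 active = every replicate at 50% or more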;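 also: 0 = median of the neutral control wells; tested in H4 reporter cells; numbers are from one replicate; inactives centre near -14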
# Bead autofluor = counter-screen for toxin protease inhibitors: compound fluorescence; actives 3.1% (n = 360,000); compound autofluorescence counterscreen, microsphere flow cytometry; hits give high values; fluorescence intensity (concentration not given with the values);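 active = at least 3 SD above the mean of all compounds, about 16000 in these data; inconclusive = too few beads counted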;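 also: 100 nL of 1 mM stock went into each well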
# BJeLR lethal = kills HRASV12-expressing BJeLR cells; BJeLR (HRASV12) viability, CellTiter-Glo ATP luminescence, 48 h; reference of the scale not given here; inhibition, % (test concentration not listed); actives 0.17% (n = 300,000); AID 1554;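 active = replicate mean above 50%; inconclusive = above 50% but judged a plate artefact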;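 also: 50 nL library stock added to about 25 µL; numbers are from one replicate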
# Mtb hypoxia inh growth = second read-out of Mtb hypoxia inh, no call of its own (marks repeat the call); growth inhibition, %; measured here: M. tuberculosis growth (absorbance);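 0% = vehicle and 100% = reference antibiotic; read after six days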
# An asterisk follows results filed as active; ? = inconclusive; / = not tested or not shown; & = joins results of further samples. Compounds were not picked by outcome. About 4% of those tested had a hit in this group.
SMILES,Sa RN4220 lethal,Mtb hypoxia inh,Mtb hypoxia inh growth,ugtP null kill,PrP UTR inh,Bead autofluor,BJeLR lethal
COc1ccc(Oc2ncnc3c2oc2ccc(Br)cc23)cc1,4.3,10,9,2,-20,4311,-2
Cc1nnc2ccc(-c3cccc(NS(=O)(=O)c4cc(F)ccc4F)c3)nn12,5.1,-3,-6,7,-16,3623,7
COc1ccc(CNC(=O)CNS(=O)(=O)c2ccc(Cl)cc2)cc1,-3.1,5,10,4,-14,2055,6
Cc1c(-c2ccccc2)[nH]n2c(=O)c3c(nc12)CCCC3,4.5,3,10,-1,-49,11483,1
O=C(N/N=C/c1cc(Cl)cc([N+](=O)[O-])c1O)C(O)(c1ccccc1)c1ccccc1,/,/,/,/,-11,3837,4
COC(=O)C1(C)CCC(C(=O)Nc2ccccc2)C1(C)C (configuration not stated),6.2,10,11,9,3,/,4
O=S(=O)(c1ccc(F)cc1)N1CCC(N2CCCC2)CC1,-4.4,6,12,-4,-12,5385,/
Cc1cccc(NC(=O)c2n[nH]c([N+](=O)[O-])c2Br)c1C,52,-10,6,50,-60,4935,-7
NC(=O)c1ccc(NC(=O)CCN2C(=O)c3ccccc3C2=O)cc1,1.9,8,-2,2,-10,2985,-9
CCn1cc(C(=O)O)c(=O)c2ccc(C)nc21,0.2,3,1,66,0,4465,5&-1
CCOc1ccc(CN2CCN(C(=O)c3cccc4ccccc34)CC2)cc1,0.1,8,-5,13,-19,3058,2
COc1cccc(CN2CCN(C(c3ccccc3)c3ccccc3)CC2)c1O,-2.2,-5,-3,-10,-7,3791,3
CCN1CCN(CCNC(=O)c2ccc(/C=C3/Sc4ccccc4N(Cc4cccc(C)c4)C3=O)cc2)CC1,-4.6,10,-3,25,-5,3366,4
O=C(NC12CC3CC(CC(C3)C1)C2)c1ccc(Br)o1,2.3,/,/,-5,-29,3584,3
CCOC(=O)c1cnn(CCOC(=O)c2ccc(F)cc2)c1NC(=O)c1ccc(F)cc1,-5.2,-1,-7,-1,-6,6909,-1
Cc1cccc(N2CCN(S(=O)(=O)c3cccc4nonc34)CC2)c1C,11,4,-2,40,-17,2719,-1
COc1cc(C)c(C(=O)CC(=O)c2c(C)cc(OC)cc2C)c(C)c1,10,10,-2,17,/,5550,-3
COC(=O)CNC(=O)C1CCCN1C(=O)CNC(=O)OC(C)(C)C (configuration not stated),0.0,/,/,14,-11,2419,-1
CSc1nc2ccccc2c(=O)n1C1CCCCC1,-6.8,1,2,17,8,3823,6
N#Cc1ccccc1NC(=O)COc1ccc2c(c1)OCO2,2.4,-1,-8,1,-49,5449,-6
CCOc1ccc(C(=O)c2cnc3ccccc3c2N2CCN(CC)CC2)cc1,/,/,/,/,-19,6086,1
CC(C)NC(=O)C1CCCN(S(=O)(=O)c2cccs2)C1 (configuration not stated),-1.9,/,/,-6,-34,4933,-2
O=C1CC(N2CCN(c3ccc(O)cc3)CC2)C(=O)N1Cc1cccs1 (configuration not stated),0.4,/,/,-2,-13,3065,/
COc1ccc(N2CCN(C(c3ccccc3OC)c3nnnn3Cc3ccco3)CC2)cc1 (configuration not stated),4.0,/,/,2,-5,2704,6
Cc1ccsc1-c1nc(CSCC(=O)NCCN2CCCC2)c(C)o1,2.2,8,8,5,-17,?,3
CCn1cc(Br)c(C(=O)Nc2ccc(Cl)cc2Cl)n1,0.3,18,8,1,-21,9919,-6
CC(=O)OC/C=C(\C)CCC=C(C)C,-0.7,/,/,-7,-56,5053,/
COC(=O)c1ccc(Cn2nc(C)c([N+](=O)[O-])c2C)o1,6.5,17,12,11,-41,4339,6
CC(c1ccncn1)N(C)C(=O)c1ccc2oc(Cc3ccccc3)nc2c1 (configuration not stated),1.5,7,0,9,-16,4804,-7
O=C(CSc1nnc(-c2cccc(F)c2)o1)N1CCOCC1,-1.3,12,6,-1,-36,3871,10
N#Cc1ccc(CSc2nnc(-c3ccncc3)o2)cc1,9.8,11,13,0,-8,3478,-3
COc1ccc(CC(=O)Nc2ccc(C(=O)Nc3ccccc3C(=O)O)cc2)cc1OC,6.8,4,-3,6,-7,2551,-9
O=C(COC(=O)/C=C/c1ccccc1Cl)NCc1ccco1,3.5,2,2,6,-2,3985,1
COc1cc(NC(=O)c2ccco2)c(C(=O)OCC(=O)Nc2ncc(Cl)cc2Cl)cc1OC,3.9,-8,2,-9,-5,10741,-3
Cn1c(=O)[nH]c(=O)c2c1nc(N1CCCCCC1)n2CCSc1nc2ccccc2o1,-11,-2,10,-4,-6,6988,-8
CCOC(=O)c1c(C2COc3ccccc3O2)csc1NC(=O)c1ccccc1 (configuration not stated),4.8,1,4,9,-28,10031,-6
Cc1cc(C)n(CCCNC(=O)c2ccc(C)c(S(=O)(=O)N3CCOCC3)c2)n1,-0.2,6,8,-2,-14,3991,-8
Nc1cc(=O)[nH]c(SCC(=O)N2CCCC2)n1,1.7,10,3,5,-13,?,/
CCOc1ccc(S(=O)(=O)N(C)CC(=O)NCc2ccc3c(c2)OCO3)cc1,2.2,-1,4,11,-10,5263,0
CC(C)(C)N1CCC1CN (configuration not stated),-2.3,9,1,1,-5,3735,/
N#Cc1ccccc1NC(=O)COC(=O)CCc1ccc(S(=O)(=O)N2CCCCC2)cc1,2.3,6,3,2,-13,2543,-6
CC1CN(C(C)C)C(C)CC1OC(=O)c1ccccc1 (configuration not stated),1.6,4,-3,1,15,2828,16
CCN(CC)CCCNC(=O)c1[nH]c(C)c(C(=O)NC2CCCCC2)c1C,0.0,4,2,1,-5,3648,-1
COc1ccccc1CC(=O)Nc1ccc2c(c1)C(=O)NC2=O,1.0,-7,5,2,3,4220,4
O=C(OC1CCOC1=O)C1CCN(S(=O)(=O)c2ccc(Cl)c(C(F)(F)F)c2)CC1 (configuration not stated),3.3,-4,-12,4,-4,?,-10
COc1ccccc1C(=O)NC(=O)COC(=O)CN1C(=O)NC2(CCCCC2C)C1=O (configuration not stated),2.8,10,-1,6,-17,6907,-15
COCc1cc(C)nc(SCC[N+](C)(C)CC(=O)c2ccccc2)c1C#N,0.4,6,7,5,-13,3243,15
CC(=O)c1c(C)[nH]c(C(=O)Nc2ccc(C)c(C)c2)c1C,3.8,3,10,2,-42,9203,5
COc1ccc(-n2c(C)cc(/C=C3\C(=O)NN(c4ccccc4)C3=O)c2C)cc1,5.5,-2,12,-10,-70,6736,-5
Cc1c(NS(=O)(=O)c2ccccc2F)c(=O)n(-c2ccccc2)n1C,-0.8,0,-1,0,-4,4157,11
COc1ccc(CNC(=O)C2CCCN2S(=O)(=O)c2ccc(C)cc2)cc1 (configuration not stated),4.7,13,13,-4,-19,4323,-1
C/C(=N\N=C(/N)SC1CC(=O)N(c2ccc(Cl)cc2)C1=O)c1cccs1 (configuration not stated),/,/,/,/,-25,11354,-7
OCCN1CCN(C(=S)Nc2ccc(Oc3ccccc3)cc2)CC1,7.0,6,0,4,-16,3071,-7
Cc1ccc(S(=O)(=O)NC(C)(C)CN2CCCCC2)cc1,3.2,8,8,5,-5,3443,6
COc1ccc(CCNS(=O)(=O)c2ccc(C3CNC(=O)C3)cc2)cc1OC (configuration not stated),2.4,5,1,9,-20,10520,-1
CC(=O)c1c(C)[nH]c(-c2ccccc2)c1C,7.5,-1,-1,-3,-2,7543,6
Cc1ccc(N2CC(C(=O)NCc3cccnc3)CC2=O)cc1 (configuration not stated),4.2,-4,-8,5,-12,5966,-8
Nc1nnc(CC(=O)N/N=C\c2ccc(-c3cccc(Cl)c3)o2)s1,/,/,/,/,-30,5602,8
Cc1ccc(SCc2c(C(=O)N/N=C/C3CC=CCC3)nnn2-c2nonc2N)cc1 (configuration not stated),/,/,/,/,-13,6311,8
Cc1nc(NC(=O)COc2ccccc2)sc1C(=O)Nc1ccccc1,8.1,8,6,-11,23,5127,0

# (more compounds)
SMILES,Sa RN4220 lethal,Mtb hypoxia inh,Mtb hypoxia inh growth,ugtP null kill,PrP UTR inh,Bead autofluor,BJeLR lethal
COc1ccc(Cn2ccnc2SCC(=O)NC2CCCC2)cc1,3.3,4,-3,0,-13,6177,-11
CC(C)(C)OC(=O)N1CCN(C(=O)c2[nH]cnc2C(=O)NC(Cc2ccccc2)C(=O)OCc2ccccc2)CC1 (configuration not stated),5.6,4,10,7,/,/,/
COc1ccc(NC(=O)c2ccco2)cc1NC(=O)COc1ccccc1,4.5,-2,2,11,-10,3517,-16
CC1CN(C(=O)c2cc3ccccc3oc2=O)CC(C)O1 (configuration not stated),1.2,-4,4,2,-11,7313,-2
COc1ccc(CNC(=O)COC(=O)/C=C/c2ccco2)cc1,-0.7,-9,3,7,-2,2482,-1
COc1cccc(-c2ncc3ccccc3c2COC(=O)CCC(=O)O)c1,2.9,19,12,3,-17,3788,/
CCNC(=S)Nc1cc(OCC)c(NC(=O)c2cccs2)cc1OCC,15,-8,7,8,-18,2539,-6
COc1ccc(CN2C(=O)CS/C2=N/N=C/c2cccs2)cc1,/,/,/,/,-34,3759,-3
CCn1c(SCC(=O)NCc2ccccc2)nc2nc3c(cc2c1=O)CCCC3,2.7,4,5,1,-30,4468,20
COc1ccc(-c2nnc(Nc3nc4c(OC)cccc4s3)o2)c(OC)c1,2.5,-6,-7,-9,-12,9639,5
O=C(NCCN1CCOCC1)c1sc2ccccc2c1Cl,0.0,-1,2,-1,-28,5089,18
O=C(CSc1nnc(NC(=O)C2CCC2)s1)NC1CC1,4.7,-4,1,0,9,3675,-4

# Filtered by structure, the entries above with a cyano group
SMILES,Sa RN4220 lethal,Mtb hypoxia inh,Mtb hypoxia inh growth,ugtP null kill,PrP UTR inh,Bead autofluor,BJeLR lethal
N#Cc1ccccc1NC(=O)COc1ccc2c(c1)OCO2,2.4,-1,-8,1,-49,5449,-6
N#Cc1ccc(CSc2nnc(-c3ccncc3)o2)cc1,9.8,11,13,0,-8,3478,-3
N#Cc1ccccc1NC(=O)COC(=O)CCc1ccc(S(=O)(=O)N2CCCCC2)cc1,2.3,6,3,2,-13,2543,-6
COCc1cc(C)nc(SCC[N+](C)(C)CC(=O)c2ccccc2)c1C#N,0.4,6,7,5,-13,3243,15

# Further results follow:
SMILES,Sa RN4220 lethal,Mtb hypoxia inh,Mtb hypoxia inh growth,ugtP null kill,PrP UTR inh,Bead autofluor,BJeLR lethal
CN1/C(=N\O)c2cccc3cccc1c23,/,/,/,/,-9,2275,6
ClC(Br)=C(n1cnc2ccccc21)n1cnc2ccccc21,-2.3,/,/,-1,2,2726,-1
O=C(NCc1ccccc1)c1onc(CSc2ccc(Cl)cc2)c1C(=O)NCc1ccccc1,-0.3,5,9,-1,-26,4054,2
C=CCNC(=S)NNC(=O)COc1ccc2cc(Br)ccc2c1,-1.9,-1,10,5,-24,3262,6
CC1CC(=O)C=C(O)C1C(=O)OC(C)(C)C (configuration not stated),-4.5,/,/,4,-12,3565,9
Cc1cccc(NC(=O)C(C)Sc2nnc(-c3cccnc3)o2)c1 (configuration not stated),3.4,6,-4,4,-36,8611,/
COC(=O)CCC(=O)OC1(C)C(=O)C2=CN(Cc3ccc4c(c3)OCO4)C(c3ccc(OC)cc3)=CC2=C(Br)C1=O (configuration not stated),/,/,/,/,-36,2569,-6
CCOC(=O)N1CCC(NC(=O)c2cc3c(-c4ccc(OC)c(OC)c4)nn(C)c3s2)CC1,1.3,/,/,10,-47,3711,5
CC(=O)N(C)c1ccc(NC(=O)CCN2C(=O)c3ccccc3C2=O)cc1,-2.3,9,-1,-4,-26,3756,7
O=C(Nc1ccc2c(c1)OCO2)c1ccc(NC2CC2)c([N+](=O)[O-])c1,3.8,3,4,-11,-19,2463,-25
C/C(=C/C=NNc1nc(N2CCCCC2)nc(N2CCCCC2)n1)c1ccccc1,-0.5,-4,11,16,/,/,/
CC(=O)Cc1nsc(Nc2ccc(Cl)cc2)n1,-1.4,14,7,3,-40,4345,/
NS(=O)(=O)c1ccc(N/N=C/C=C/c2ccccc2[N+](=O)[O-])cc1,/,/,/,/,-60,5856,-6
CC(C)CCNC(=O)c1onc(CSc2nc3ccccc3[nH]2)c1C(=O)NCCC(C)C,-3.9,-2,8,1,-15,4492,-6
Cc1cc2cc(CCNS(=O)(=O)c3ccc(F)cc3)c(=O)[nH]c2cc1C,4.4,4,-2,7,-18,4211,0
CC1(C)Cc2ccccc2C(=NC(Cc2c[nH]c3ccccc23)C(=O)O)N1 (configuration not stated),3.6,-8,-7,-1,-12,4094,7
